Screening results: PubChem BioAssay, several laboratories
UCH37 DUB inh: human UCH37 deubiquitinating enzyme inhibition; purified proteasome/UCH37, Ub-AMC cleavage fluorescence; AID 588478; Q9Y5K5; actives 0.33% (n = 330,000); inhibition, % (test concentration not listed);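 active = mean of two replicates above 20%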;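 also: 0% = compound-free wells with enzyme and 100% = wells lacking proteasome; stock transfer was 100 nL into about 20 µL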
Target sequence (Q9Y5K5 whole entry, looked up): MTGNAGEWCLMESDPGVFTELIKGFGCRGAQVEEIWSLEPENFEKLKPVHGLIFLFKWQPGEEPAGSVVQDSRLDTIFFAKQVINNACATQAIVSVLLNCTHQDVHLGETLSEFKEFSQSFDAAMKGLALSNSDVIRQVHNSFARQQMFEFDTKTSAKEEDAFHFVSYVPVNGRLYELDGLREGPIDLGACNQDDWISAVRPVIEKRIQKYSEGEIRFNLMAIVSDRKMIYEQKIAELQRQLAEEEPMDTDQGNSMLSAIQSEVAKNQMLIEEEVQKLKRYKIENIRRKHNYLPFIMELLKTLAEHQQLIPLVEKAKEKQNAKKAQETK
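Material: Human UCH37 enzyme supplied as purified proteasome complex | Schedule: 30 min preincubation with enzyme, 25 min cleavage at room temperature | Detection: AMC fluorescence 355/460 nm | Measure: % inhibition of Ub-AMC cleavage fluorescence | Controls: Wells without proteasome as full block, compound-free enzyme plus substrate as uninhibited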
Beta apoptosis: beta cell apoptosis inhibition; INS-1E cytokine-induced death, ATP luminescence, 48 h; percent of positive-control rescue, neutral wells zero; protection from apoptosis, % (no concentration beside the values); actives 0.8% (n = 300,000);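 active = all replicates at 75% or more, or half of them and the mean; inconclusive = half reach 75% but not the mean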;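 also: 0% = cytokine-treated negative control wells and 100% = positive control rescue; higher means more ATP so stronger rescue from cytokine killing; wells of about 40 µL received 100 nL stock; the first replicate is given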
Ecoli growth: inhibitors of Escherichia coli growth | OD600, 23 h; hits give low values | OD600 absorbance (test concentration not listed) | actives 0.21% (n = 330,000) | AID 1053175;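 active = OD600 absorbance below the run mean of sample wells minus 3.6 SD, in any replicate, cut at about 0.56 in these data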;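 also: stock transfer was 300 nL into about 60 µL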
MLL AF4-AF9 inh: blocks AF4 peptide binding to human AF9. P42568. AlphaScreen, biotin-AF4 peptide binding to FLAG-AF9. inhibition, % at 10 µM. actives 0.47% (n = 350,000). AID 651704;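 active = every replicate reaching a set inhibition limit, whatever the replicate mean, cut at about 25% in these data; inconclusive = mean inhibition reaches that limit but some replicates miss it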;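 also: 0% = plate neutral control median and 100% = total signal loss; the record names both 10 and 1 µM as test concentration; the first replicate is given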
Target sequence (P42568 whole entry, looked up): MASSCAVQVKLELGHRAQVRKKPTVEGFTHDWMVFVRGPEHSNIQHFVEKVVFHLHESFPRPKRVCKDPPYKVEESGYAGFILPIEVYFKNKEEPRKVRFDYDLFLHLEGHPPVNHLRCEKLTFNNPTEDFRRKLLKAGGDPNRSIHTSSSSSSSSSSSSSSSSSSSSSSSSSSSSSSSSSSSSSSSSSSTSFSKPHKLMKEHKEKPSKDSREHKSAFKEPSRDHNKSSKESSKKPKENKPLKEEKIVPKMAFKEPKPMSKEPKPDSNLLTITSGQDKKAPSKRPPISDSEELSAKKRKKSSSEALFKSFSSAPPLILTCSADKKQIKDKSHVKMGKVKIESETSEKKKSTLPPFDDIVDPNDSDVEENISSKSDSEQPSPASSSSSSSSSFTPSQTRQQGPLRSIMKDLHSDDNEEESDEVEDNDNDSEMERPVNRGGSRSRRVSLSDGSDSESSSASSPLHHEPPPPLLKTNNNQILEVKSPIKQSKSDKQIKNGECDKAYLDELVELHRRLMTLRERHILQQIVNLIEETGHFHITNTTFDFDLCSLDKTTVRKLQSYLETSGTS
T cruzi repl: blocks replication of Trypanosoma cruzi; actives 1.4% (n = 300,000); T. cruzi beta-gal in NIH3T3, luminescence, 90 h; inhibition, % (test concentration not listed);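 active = mean inhibition across valid replicates above about 55%, limit read from the data; inconclusive = mean below that limit but half or more replicates reach it; inactive = mean below it, under half of replicates reach it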;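 also: signal also drops with host cell toxicity which is not excluded here; 0% = plate median of DMSO wells and 100% = zero luminescence signal; higher percent means less beta-gal luminescence so fewer parasites; stock transfer was 50 nL into about 50 µL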
A1 inh: inhibitors of the anti-apoptotic protein A1, read as caspase activation | MEF A1-2A-BIM cells, Caspase-Glo 3/7 luminescence, 3 h; percent of clofoctol response, vehicle zero | caspase activation, % (no concentration beside the values) | actives 0.066% (n = 330,000) | AID 2462;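 active = over half of replicate activation scores above 10%, or exactly half above 10 with the replicate mean above 10; inconclusive = replicate mean below 10 yet half the replicates above 10; inactive = over half of replicates below 10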;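 also: wells of about 30 µL received 50 nL stock; many hits fall short of the cut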
Ecoli rRNA inh: selective bacterial rRNA inhibition in E. coli. E. coli WT GFP vs humanized-ribosome RFP mutants, fluorescence, 24 h; hits give low values; DMSO median 0, no signal -100. GFP signal change (wild-type ribosome), % (no concentration beside the values). actives 1.6% (n = 350,000);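 active = significant combined selectivity score with lowered wild-type GFP, culture density cut under 30%, mutant RFP and density less affected; inactive = any of these conditions unmet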; also: one replicate is shown; some compounds called inactive have numbers as strong as hits
FGF22 binding: binders of recombinant human FGF22 by thermal shift; AID 651658; calls only at 9.99 µM; SYPRO orange fluorescence; percent of sucrose octasulfate shift, DMSO zero; actives 1.5% (n = 340,000);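 active = melting point raised past a set limit in the mean and every replicate; inconclusive = no clear call; three in four hits are not shown here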
Target sequence (Q9HCT0 whole entry, looked up): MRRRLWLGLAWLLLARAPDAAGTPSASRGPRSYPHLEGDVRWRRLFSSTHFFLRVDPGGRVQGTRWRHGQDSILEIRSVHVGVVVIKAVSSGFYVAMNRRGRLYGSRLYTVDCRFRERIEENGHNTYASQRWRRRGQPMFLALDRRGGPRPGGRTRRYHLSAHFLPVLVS
Ecoli rRNA inh OD600: also measured in Ecoli rRNA inh; calls as there; OD600 change, %; measured here: OD600 growth;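 optical density of the mix in the first replicate; 0 = DMSO median and -100 = no signal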
Ecoli rRNA inh RFP: also measured in Ecoli rRNA inh; calls as there; RFP signal change, %; measured here: RFP humanized mutant strains;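 first replicate; 0 = DMSO median and -100 = no signal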
Starred values were filed as active, the others as inactive; i = inactive; ? = inconclusive; . = not tested or not shown; & = joins results of further samples. An excerpt (hit frequency here may not be typical).

The line under a structure holds: Ecoli rRNA inh	MLL AF4-AF9 inh	UCH37 DUB inh	Ecoli rRNA inh RFP	A1 inh	T cruzi repl	Ecoli rRNA inh OD600	Beta apoptosis	Ecoli growth	FGF22 binding
- CCCCC1=CC2=CC(=O)C(C)(OC(=O)CC)C(=O)C2=CN1c1ccc(OC)cc1 (centres undefined)
→ 13	5.6	5.1	3.0	?	40	10	3	0.65	i
- O=C(Nc1cccc([N+](=O)[O-])c1)c1ccc2c(c1)C(=O)N(c1ccccn1)C2=O
→ 1	-3.6	0.1	-2.7	0.1	-14	6	1	0.61	i
- O=C(Oc1ccc(Cl)c2ccccc12)N1CCCCC1
→ .	.	2.1	.	0.6	8	.	-4	0.7	.
- COC1OC(CO)C(O)C(O)C1O (centres undefined)
→ 1	-2.1	1.1	6.1	0.6	-15	21	-12	0.66	i
- Cc1cc(=O)c(C(=O)O)cn1Nc1ccc(Cl)cc1
→ 3	.	2.3	12	0.4	2	6	-1	0.7	.
- COc1cccc(-c2[nH]nc3c2C(c2ccsc2)C(C#N)=C(N)O3)c1 (centres undefined)
→ .	.	5.8	.	0.9	6	.	2	0.72	.
- C[C@H](CO)N1C[C@H](C)[C@@H](CN(C)C(=O)Nc2ccc(C(F)(F)F)cc2)Oc2c(NC(=O)c3ccncc3)cccc2C1=O
→ 1&11	1.7&-1.7	5.2	-0.5&-0.2	0.3	.	6&8	-13	0.7	i
- Cc1cccnc1CCNC(=O)C1CCC(=O)N(Cc2cccc(F)c2)C1 (centres undefined)
→ 9	-0.4	-0.5	2.0	0.2	-13	14	-4	0.73	i
- Cc1ccc(S(=O)(=O)NC(=O)c2ccc(-c3ccc(C)c4ccccc34)o2)cc1
→ -50	-0.5	-297	-13	0.4	4	-67	-5	0.63	i
- CC1CCCCN1CC(O)COCc1ccc(Cl)cc1 (centres undefined)
→ 5	2.8	0.0	0.8	-0.5	10	20	.	0.71	.
- COc1ccc2ccc3c(c2c1)N=C[C@]1(O3)N(C)c2ccccc2C1(C)C
→ -13	.	-8.3	-1.2	0.6	11	-10	-8	0.7	.
- COCCn1ccc2c(OCC(=O)NCc3ccc(C)cc3)cccc2c1=O
→ -1	-3.8	-2.4	0.5	0.3	-6	-7	4	0.69	i
- CC(C)(C)C(=O)c1cnc(Nc2ccccc2Cl)s1
→ .	.	-2.1	.	-4.8	13	.	8	0.64	.
- COc1ccc(-c2nc3ccccc3c(=O)n2CCOc2ccccc2C)cc1
→ 24	-5.3	0.0	1.2	0.0	-10	19	1	0.73	i
- CCOC(=O)[C@H]1[C@H]2COc3cc(OC)ccc3[C@@H]2N2C(=O)c3ccc(C)cc3NC(=O)[C@@]12C
→ -9	3.4	-4.4	2.5	?	.	0	1	.	i
- O=C(CCCNC(=O)c1ccc(Cl)cc1)Nc1ccccc1C(F)(F)F
→ 1	-0.3	2.9	1.7	-0.1	-2	5	-2	0.66	i
- CC(C)NC(=O)c1onc(CSc2ccccc2F)c1C(=O)O
→ -3	-0.2	2.6	7.0	0.5	-14	-13	-6	0.6	i
- O=C1OC(/C(=C\Nc2ccccc2)[N+](=O)[O-])c2ccccc21 (centres undefined)
→ 12	-0.8	5.4	-0.4	0.8	-12	13	-14	0.71	i
- Cc1ccc(S(=O)(=O)N(C)c2ccc(C(=O)NCC(c3ccco3)N(C)C)cc2)cc1 (centres undefined)
→ .	1.2	-2.7	.	-1.2	.	.	6	0.69	i
- COc1ccc(/C=C/C(=O)Nc2cc(C(F)(F)F)ccc2Cl)cc1
→ .	.	2.4	.	0.2	10	.	0	0.69	.
- Cc1cc(NC(=O)CSc2nc(CC(C)(C)C)nc3c2c(=O)n(C)c(=O)n3C)no1
→ 4	4.5	2.3	2.9	-0.3	19	7	2	0.74	i
- CCNC(=O)NC(=O)COC(=O)CCCSc1nc2ccccc2[nH]1
→ .	.	0.8	.	-1.6	-19	.	-6	0.66	.
- CCOC(CCn1c(SCc2cccc([N+](=O)[O-])c2)nc2ccccc2c1=O)OCC
→ 2	8.0	-1.6	-11	0.0	29	-2	9	0.77	i
- CCC(NC(=S)NC1CCCCC1)c1ccccc1 (centres undefined)
→ -6	0.3	.	13	1.4	-19	-49	2	.	i
- NC(=O)C1CCN(C(=S)c2ccc(-c3ccc(Br)cc3)o2)CC1
→ -4	0.0	2.8	0.0	0.4	9	-7	-1	0.69	i
- CCCSc1nc2sc3c(c2c(=O)[nH]1)CC(C)(CC)OC3 (centres undefined)
→ 3	-2.3	2.5	3.5	-0.4	7	12	-3	0.7	i
- O=C(C[n+]1ccccc1)Nc1ccccc1
→ 9	.	1.2	-1.0	0.5	-8	6	14	0.64	i
- CCN(CC)CCNC(=O)CS(=O)Cc1nc(-c2ccc(Cl)cc2)oc1C (centres undefined)
→ .	.	0.9	.	-0.4	1	.	-4	0.7	.
- Cc1cc2cc(CN(C(=O)C3CC3)C3CCCC3)c3nnnn3c2cc1C
→ .	.	2.2	.	0.0	13	.	.	0.71	.
- COc1ccc(N2CCN(C(c3cc4cc(C)ccc4[nH]c3=O)c3nnnn3Cc3ccccc3)CC2)cc1 (centres undefined)
→ .	.	-3.5	.	0.1	-3	.	-8	0.7	.
- O=C(O)c1ccc(OC(F)(F)C(F)C(F)(F)F)cc1 (centres undefined)
→ .	.	4.7	.	-0.1	-1	.	2	0.73	.
- O=C(NCc1ccccn1)[C@@H]1C[C@H]1[C@@H](NP(=O)(c1ccccc1)c1ccccc1)c1ccccc1
→ 6	1.6	3.2	-0.5	1.9	-5	-1	.	.	i
- COC(=O)C1CN(C(=O)C(C)Oc2ccc(F)cc2)c2ccccc2O1 (centres undefined)
→ 2	1.9	5.2	-0.6	0.1	-5	9	-10	0.69	.
- O=[N+]([O-])c1ccc(Sc2nnnn2-c2ccccc2)c(Cl)c1
→ .	.	-0.8	.	-0.6	42	.	24	0.69	.
- Cc1ccc(S(=O)(=O)/N=C(\N)Nc2nc(C)c3ccccc3n2)cc1
→ .	.	0.2	.	-0.2	19	.	0	0.62	.
- CCCCc1nnc(NC(=O)CSc2nc(=O)cc(N)n2-c2cccc(C)c2)s1
→ .	.	1.4	.	0.8	18	.	-6	0.68	.
- Cc1ccc(Oc2ncccc2C(=O)NCC(=O)O)cc1
→ 7	-17	3.6	-2.0	0.3	-16	7	-4	0.68	i
- CC(C)CN(C(=O)COC(=O)c1ccc(-c2ccccc2)cc1)C1CCS(=O)(=O)C1 (centres undefined)
→ 12	-2.1	1.1	1.8	1.3	-4	9	-6	0.73	i
- CC1(C)c2ssc(=S)c2-c2ccccc2N1C(=O)c1ccco1
→ .	.	3.3	.	?	4	.	-3	0.72	.
- COC(=O)c1c(NC(=O)C2CCCCC2)sc2c1CCN(C(C)C)C2
→ -1	-6.6	1.1	-5.9	-0.3	-17	-7	3	0.72	i
- O=C(CSc1nc2ccccc2[nH]1)Nc1ccc(F)c(F)c1
→ .	.	2.4	.	-2.0	-20	.	1	0.62	.
- CCc1sc(C(=O)NC(C)C2CCCO2)cc1Br (centres undefined)
→ -5	-13	0.9	1.5	1.8	-3	-1	4	0.69	i
- O=C(Cc1ccccc1)Nc1ccc(NC(=O)c2ccco2)nc1
→ .	.	0.5	.	-2.6	-15	.	.	0.64	.
- Cc1ccccc1OCC(=O)Nc1ccccc1CO
→ .	.	0.5	.	-1.6	11	.	-4	0.67	.
- O=C(CN1C(=O)NC2NC(=O)NC21)NN=C1CCCC1 (centres undefined)
→ 2	-3.4	2.8	-1.4	0.3	-1	15	-5	0.68	i
- COc1cc(C(C#N)N2CCCCC2)ccc1O (centres undefined)
→ .	.	14	.	-0.1	-11	.	3	0.73	.
- CC(=O)OCN(C#N)c1nc(N(C)C)nc(N(C)C)n1
→ .	.	6.0	.	0.8	7	.	-3	0.71	.
- Cc1ccc(-n2nnc(-c3cccnc3Cl)n2)cc1
→ 20	-5.6	-1.2	8.0	-7.6	-5	25	-5	0.7	i
- O=S(=O)(N/N=C/c1ccc2c(c1)OCCO2)c1ccc(Cl)cc1
→ -12	-214	.	1.5	0.2	-7	-18	-1	.	i
- CCc1ccccc1NC(=O)C1CCN(C(=O)c2cccs2)CC1
→ 2	2.8	2.4	-1.7	0.6	0	-2	3	0.71	i
- Cc1ccc(NS(=O)(=O)c2ccc(NS(=O)(=O)c3cccs3)cc2)cc1
→ .	.	4.1	.	-0.5	-1	.	-3	0.72	.
- CCCS(=O)(=O)N1CCN(C(=O)COc2ccc(-c3ccccc3)cc2)CC1
→ .	.	1.0	.	-0.5	-13	.	0	0.7	.
- COc1ccc2oc(C(=O)NCc3ccccc3CN3CCCC3)c(C)c2c1
→ -12	5.8	-12	-4.6	1.5	.	-18	-4	0.65	i
- CC(=O)Nc1sc2c(c1C#N)CC(C)(C)NC2(C)C
→ .	.	3.5	.	0.6	-4	.	5	0.66	.
- CN(C)S(=O)(=O)c1cccc(NC(=O)/C=C/c2ccccc2[N+](=O)[O-])c1
→ 13	-0.1	1.0	0.3	-1.6	8	10	3	0.66	i
- Cc1cccc(N2CCN(C(=O)Cc3ccc(Br)cc3)CC2)c1C
→ .	.	3.1	.	-0.5	7	.	6	0.78	.
- CCOC(=O)c1c(C)[nH]c(C)c1S(=O)(=O)NCCCc1ccco1
→ -1	7.6	5.3	-1.8	0.2	-3	7	4	0.66	i
- CCCc1cc(=O)[nH]c(SCC(=O)N(CC(C)C)C2CCS(=O)(=O)C2)n1 (centres undefined)
→ .	.	0.5	.	-1.6	-27	.	-4	0.69	.
- CCc1ccc2[nH]c(=O)c(CN(CCN3CCOCC3)C(=O)Nc3ccccc3F)cc2c1
→ .	.	-2.4	.	-0.1	-3	.	-6	0.71	.
- CCN(CC(=O)NC(C)C)C(=O)C(CCSC)NC(=O)c1cccc(C)c1 (centres undefined)
→ .	.	-0.9	.	0.1	-1	.	.	0.64	.

The results go on:
The line under a structure holds: Ecoli rRNA inh	MLL AF4-AF9 inh	UCH37 DUB inh	Ecoli rRNA inh RFP	A1 inh	T cruzi repl	Ecoli rRNA inh OD600	Beta apoptosis	Ecoli growth	FGF22 binding
- CCCC(=O)C1=C(O)C(C(=O)OC)C(C)(C)CC1=Nc1cccc2ccccc12 (centres undefined)
→ .	.	-4.4	.	0.3	22	.	-9	0.77	.
- C[N+](C)(C)CC(O)CC(=O)O (centres undefined)
→ .	-2.6	3.4	.	-1.1	-20	.	-2	0.64&0.71	i
- C/C(=N/NC(=O)C(=O)N/N=C(/C)c1ccccc1)c1ccccc1
→ 14	-0.9	.	-0.1	-0.5	-1	18	0	.	.
- O=c1[nH]c2cc3c(cc2cc1CN(CCc1ccccc1)Cc1nnnn1CC1CCCO1)OCO3 (centres undefined)
→ .	.	-64	.	0.2	3	.	-4	0.75	.
- CCn1c(=O)c(-[n+]2ccccc2)c(O)c2ccccc21
→ .	.	3.1	.	-1.8	11	.	-6	0.74	.
